# HSV replic up: increases HSV replication in cells; HSV replication augmentation in cells, fold increase; maximum fold increase; 220,000 compounds, 0.005% hits;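 active means peak rise of 1.5-fold or more in the series; tested in PC3 cells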;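 further: first round at 10 µM; read as green reporter fluorescence; hits show the peak of a series up to 25 µM; 1 = signal of infected wells without compound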
# GALR2 ag: agonists of human galanin receptor 2 (GALR2) | 140,000 compounds, 0.48% hits | O43603 | GALR2-expressing cells, agonist activation read-out | activation, %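 (tested at 5 µM)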;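 active means above mean plus 3 SD of all compounds, about 5% in these data, not always enough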;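 further: 0% = vehicle buffer wells and 100% = reference agonist at full effect; tested in CHO reporter cells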
# Target sequence (O43603 whole entry, looked up): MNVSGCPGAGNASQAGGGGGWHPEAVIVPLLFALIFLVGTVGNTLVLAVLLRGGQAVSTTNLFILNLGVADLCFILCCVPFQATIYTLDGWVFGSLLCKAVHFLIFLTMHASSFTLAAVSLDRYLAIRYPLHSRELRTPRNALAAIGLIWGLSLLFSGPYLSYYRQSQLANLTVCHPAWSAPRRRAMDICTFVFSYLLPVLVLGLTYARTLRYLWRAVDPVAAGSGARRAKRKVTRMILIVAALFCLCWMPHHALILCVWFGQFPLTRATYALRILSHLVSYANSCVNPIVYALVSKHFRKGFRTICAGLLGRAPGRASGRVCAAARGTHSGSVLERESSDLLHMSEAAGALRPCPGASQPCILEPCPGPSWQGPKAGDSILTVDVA
# RGS16-Gao: RGS16-Galphao interaction regulator (human); bead-based flow cytometry RGS16-Galphao binding, fluorescence; actives lie on both sides; binding response (% of control), % at 10 µM; 220,000 compounds, 0.38% hits;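 active means below 25% or above 175%, edge rows of some plates excepted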;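 further: Galphao activated by GDP with aluminum fluoride before binding; 100% = wells without compound and 0% = beads without RGS; some results beyond the cut were filed as inactive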
# Target sequence (O15492 whole entry, looked up): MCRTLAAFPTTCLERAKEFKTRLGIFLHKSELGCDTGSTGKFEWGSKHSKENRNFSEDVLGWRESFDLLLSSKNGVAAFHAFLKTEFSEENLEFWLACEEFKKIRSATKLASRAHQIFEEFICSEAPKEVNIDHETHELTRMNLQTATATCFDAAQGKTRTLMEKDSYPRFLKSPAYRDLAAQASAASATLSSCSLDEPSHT
# Target sequence (P09471 whole entry, looked up): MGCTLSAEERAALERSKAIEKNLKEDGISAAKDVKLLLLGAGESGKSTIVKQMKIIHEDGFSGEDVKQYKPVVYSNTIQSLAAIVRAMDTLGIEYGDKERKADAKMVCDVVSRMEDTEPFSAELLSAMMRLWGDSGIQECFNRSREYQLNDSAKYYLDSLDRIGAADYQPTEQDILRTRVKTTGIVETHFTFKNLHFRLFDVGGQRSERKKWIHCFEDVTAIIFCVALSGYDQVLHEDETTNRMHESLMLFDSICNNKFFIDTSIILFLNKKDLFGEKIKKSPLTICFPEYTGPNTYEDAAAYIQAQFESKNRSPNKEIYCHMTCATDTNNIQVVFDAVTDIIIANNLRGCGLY
# INS promoter inh: TRM-6 insulin promoter activity inhibition; TRM-6 cells (human fetal islet line), insulin promoter-eGFP reporter, imaging; reporter expression induced with tamoxifen; inhibition, % at 2 µM; 130,000 compounds, 0.9% hits;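 active means inhibition above the mean plus 3 SD, with well images judged a real hit on visual review, cut at about 60% in these data, passing the limit was not always enough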
# PKD1 kinase inh: blocks activity of human protein kinase D1; Q15139; AID 797; 200,000 compounds, 0.056% hits; inhibition, %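 (about 10 µM by stock and volumes)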; PKD1 kinase fluorescence polarization assay;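 active means inhibition of 50% or more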;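 further: controls were vehicle for no effect and a reference inhibitor for full effect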
# INS promoter inh cell count: further read-out of INS promoter inh, marked with its call; normalized cell count, %; measured here: cell count, toxicity; reference of the scale not given here;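 cells exposed to compound for 48 h; stained nuclei by imaging scaled within each plate; lower means fewer cells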
# HSV replic up primary fold: second read-out of HSV replic up, no call of its own (marks repeat the call); fold increase; compound at 10 µM; measured here: primary screen fold increase 10 uM; tested in PC3 cells;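 GFP signal in the first replicate; 1 = infected wells without compound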
# Numbers without * were called inactive; i = inactive; . = not tested or not shown.
# Screens by letter: A = HSV replic up; B = HSV replic up primary fold; C = GALR2 ag; D = RGS16-Gao; E = INS promoter inh; F = INS promoter inh cell count; G = PKD1 kinase inh
CCOC(=O)C1CCCN(C(=O)CSc2nccn2C)C1 (configuration not stated)
  A: i	B: 0.97	C: 0.8	D: 100	E: 36	F: 85	G: -6
O=C(CSc1nnc(-c2cccnc2)n1Cc1ccccc1)N1CCOCC1
  A: i	B: 1.1	C: -1.6	D: 114	E: 3	F: 92	G: -14
CCC1(c2ccccc2)NC(=O)N(CC(=O)Nc2cccc(C#N)c2)C1=O (configuration not stated)
  A: i	B: 0.69	C: -1.6	D: 106	E: .	F: .	G: -7
Cn1c(SCC(=O)Nc2cccc(O)c2)nnc1-c1ccc(S(=O)(=O)N2CCOCC2)cc1
  A: i	B: 0.98	C: -1.1	D: 99	E: 0	F: 114	G: -6
O=C(NCC(=O)N(Cc1cccs1)C(C(=O)NC1CCCCC1)c1ccco1)c1ccco1 (configuration not stated)
  A: i	B: 1	C: -2.1	D: 116	E: -203	F: 68	G: 8
CCc1ccc(NC(=O)COC(=O)c2ccc(Cl)c(S(=O)(=O)N3CCCCCC3)c2)cc1
  A: i	B: 1	C: -0.7	D: 108	E: -21	F: 110	G: -9
C=CCc1c(C)[nH]c2ccc(C)cc2c1=O
  A: i	B: 1	C: -3.1	D: 103	E: 13	F: 120	G: 1
Cc1ccc(CSc2nc3ccccc3cc2C=O)cc1
  A: i	B: 0.48	C: 1.1	D: 88	E: -45	F: 17	G: 3
Cc1cc(NC(=O)/C=C/c2ccco2)ccc1NC(=O)c1ccccc1
  A: i	B: 0.8	C: .	D: 102	E: .	F: .	G: 3
O=C(CCSCc1ccc(Cl)cc1)NCCC1=CCCCC1
  A: i	B: 0.9	C: -0.1	D: 104	E: -33	F: 84	G: -3
Cc1ccc(CNC(=O)C2C3C=CC4(CN(Cc5cccnc5)C(=O)C24)O3)cc1 (configuration not stated)
  A: i	B: 1.1	C: -2.0	D: 98	E: 36	F: 134	G: -8
CC(=O)Nc1ccc(NC(=O)C/C(C)=N/NC(=O)C(=O)Nc2ccc(C)c(Cl)c2)cc1
  A: i	B: 1.1	C: .	D: 97	E: .	F: .	G: .
CC1=NN(C(=O)c2ccc(Br)cc2)C(O)(c2ccccc2)C1 (configuration not stated)
  A: i	B: 0.89	C: .	D: 102	E: .	F: .	G: 2
Cc1nc2ccccc2c(=O)n1NC(=O)C1CCC(C(C)(C)C)CC1 (configuration not stated)
  A: i	B: 0.96	C: .	D: 117	E: -11	F: 104	G: -2
COc1ccc(C(=O)CSc2nnc(-c3ccc(S(=O)(=O)N4CCOCC4)cc3)o2)cc1
  A: i	B: 0.76	C: -2.7	D: 106	E: 29	F: 2	G: -14

# Four of the compounds above, with each value named.
> CC(=O)Nc1ccc(NC(=O)C/C(C)=N/NC(=O)C(=O)Nc2ccc(C)c(Cl)c2)cc1
  HSV replic up: i | HSV replic up primary fold: 1.1 | GALR2 ag: . | RGS16-Gao: 97 | INS promoter inh: . | INS promoter inh cell count: . | PKD1 kinase inh: .

> O=C(CSc1nnc(-c2cccnc2)n1Cc1ccccc1)N1CCOCC1
  HSV replic up: i | HSV replic up primary fold: 1.1 | GALR2 ag: -1.6 | RGS16-Gao: 114 | INS promoter inh: 3 | INS promoter inh cell count: 92 | PKD1 kinase inh: -14

> Cc1nc2ccccc2c(=O)n1NC(=O)C1CCC(C(C)(C)C)CC1 (configuration not stated)
  HSV replic up: i | HSV replic up primary fold: 0.96 | GALR2 ag: . | RGS16-Gao: 117 | INS promoter inh: -11 | INS promoter inh cell count: 104 | PKD1 kinase inh: -2

> CC1=NN(C(=O)c2ccc(Br)cc2)C(O)(c2ccccc2)C1 (configuration not stated)
  HSV replic up: i | HSV replic up primary fold: 0.89 | GALR2 ag: . | RGS16-Gao: 102 | INS promoter inh: . | INS promoter inh cell count: . | PKD1 kinase inh: 2

# Continued.
# Screens by letter: A = HSV replic up; B = HSV replic up primary fold; C = GALR2 ag; D = RGS16-Gao; E = INS promoter inh; F = INS promoter inh cell count; G = PKD1 kinase inh
O=C1C(Nc2ccccc2)=C/C(=N/S(=O)(=O)c2cccs2)c2ccccc21
  A: i	B: 0.55	C: 5.5*	D: 109	E: 50	F: 134	G: -8
O=C(COC(=O)c1ccc(Cl)c(S(=O)(=O)N2CCCC2)c1)NCc1cccs1
  A: i	B: 1.1	C: .	D: 102	E: -120	F: 93	G: 6
CCCCOC(=O)Nc1ccc(C)c(Cl)c1
  A: i	B: 0.97	C: -1.4	D: 94	E: -63	F: 72	G: -2
CCC(C)(C)C1CCC(=NNC(=O)c2ccc(Br)o2)CC1 (configuration not stated)
  A: i	B: 0.93	C: -2.1	D: 100	E: 49	F: 114	G: 4
O=C(c1cc(F)ccc1F)C1CCCN(C(=O)CSc2ccccn2)C1 (configuration not stated)
  A: i	B: 1.2	C: .	D: 98	E: .	F: .	G: 7
Cc1ccc(NC(=O)CC2SC(=O)N(c3ccccc3)C2=O)cc1 (configuration not stated)
  A: i	B: 0.96	C: -2.0	D: 99	E: -329	F: 59	G: 4
Cc1cn2nc(N)c3ccccc3c2n1
  A: i	B: 1	C: -0.8	D: 104	E: .	F: .	G: 15
Cc1cc(C(=O)N/N=C/c2cc([N+](=O)[O-])cc(C)c2O)n[nH]1
  A: i	B: 0.97	C: -2.8	D: 78	E: .	F: .	G: -13
CCC(CC)C(=O)Nc1c(C)n(C)n(-c2ccccc2)c1=O
  A: i	B: 1.2	C: 1.2	D: 102	E: 14	F: 140	G: -8
COc1ccccc1C(=O)Nc1ccc(-c2nnc(SCC(=O)O)n2C)cc1
  A: i	B: 0.99	C: -2.3	D: 97	E: 21	F: 76	G: -5
CNC(=S)NNC(=O)Cc1ccc(OC)c(OC)c1
  A: i	B: 0.75	C: -4.0	D: 99	E: .	F: .	G: -3
Cc1ccc(NC(=O)COC(=O)C2CCC(=O)N2)c(S(=O)(=O)N2CCOCC2)c1 (configuration not stated)
  A: i	B: 1.1	C: -1.3	D: 103	E: 9	F: 106	G: -11
Cc1csc2nc3cc(C(N)=O)ccc3c(=O)n12
  A: i	B: 1.1	C: .	D: 102	E: .	F: .	G: .
COC(=O)[C@@H]1C(c2ccccc2)(c2ccccc2)[C@@]1(C)C(=O)OC
  A: .	B: .	C: -0.9	D: 105	E: .	F: .	G: -4
CCC(=O)N=c1sc2c(C)cc(C)cc2n1CC(=O)OC
  A: i	B: 0.99	C: -3.3	D: 101	E: .	F: .	G: -23
CCOC(=O)c1ccc(NC(=S)NN2CCN(C)CC2)cc1
  A: i	B: 1.2	C: .	D: 100	E: -100	F: 33	G: -7
S=C(Nc1ccccc1Oc1ccccc1)NC1CCCC1
  A: i	B: 0.98	C: .	D: 100	E: .	F: .	G: -8
Cc1cc(C)n(-c2nc3c(c(=O)[nH]c(=O)n3C)n2CC(O)COc2ccc(Cl)cc2Cl)n1 (configuration not stated)
  A: i	B: 0.86	C: -2.5	D: 48	E: -40	F: 153	G: -3
O=C(COC(=O)C1=COCCO1)Nc1ccc(Oc2ccccc2)cc1
  A: i	B: 0.93	C: -1.2	D: 106	E: 23	F: 92	G: 5
COc1ccc2c(C)cc(SCn3nnc4ccccc4c3=O)nc2c1
  A: i	B: 1.2	C: -1.4	D: 98	E: .	F: .	G: 7
O=C(NCc1cccnc1)c1cnc2ccccc2n1
  A: i	B: 1.1	C: .	D: 102	E: .	F: .	G: .
CCC(C(=O)O/N=C(\N)c1ccc(Cl)cc1)c1ccccc1 (configuration not stated)
  A: i	B: 0.69	C: -0.8	D: 103	E: -25	F: 130	G: -8
Cc1ccc2cc3c(NC(=O)CC(C)C)nn(C)c3nc2c1
  A: i	B: 0.77	C: 1.6	D: 113	E: -38	F: 122	G: 9
CCOC(=O)c1[nH]c2ccc(F)cc2c1NC(=O)Nc1ccccc1OC
  A: i	B: 0.9	C: -2.7	D: 116	E: -43	F: 62	G: -3
CCc1nc(SCC(=O)Nc2c(C)nn(C)c2C)c2cnn(-c3ccccc3)c2n1
  A: .	B: .	C: -0.1	D: 98	E: -3	F: 179	G: -4
CC(C)Oc1ccc(C(=O)Nc2cc(=O)n(C)c(=O)n2C)cc1
  A: i	B: 0.79	C: -3.2	D: 99	E: .	F: .	G: -14
CS(=O)(=O)c1ccccc1C(=O)NC1CCCc2ccccc21 (configuration not stated)
  A: i	B: 1.2	C: .	D: 109	E: .	F: .	G: -6
O=[N+]([O-])c1cc(Cl)ccc1N1CCCC1
  A: i	B: 0.98	C: .	D: 113	E: .	F: .	G: 4
CC(C)(C)C1CCc2c(C(=O)NNC(=O)CCC(=O)O)csc2C1 (configuration not stated)
  A: i	B: 0.9	C: 0.4	D: 74	E: 7	F: 85	G: 0
Cc1ccc(NC(=O)C2CC=CCC2C(=O)N2CCCCC2)cc1 (configuration not stated)
  A: i	B: 0.81	C: -0.5	D: 96	E: -33	F: 35	G: -4
CC(C)(C)NS(=O)(=O)c1ccc(NC(=O)NC2CCCCC2)cc1
  A: i	B: 0.98	C: -2.4	D: 97	E: .	F: .	G: -5
CNc1oc(-c2cccs2)nc1S(=O)(=O)c1ccccc1
  A: i	B: 0.87	C: .	D: 98	E: .	F: .	G: 5
COc1ccc(N2C(=O)CC(N3CCN(C(=O)c4ccco4)CC3)C2=O)cc1 (configuration not stated)
  A: i	B: 1	C: .	D: 104	E: -25	F: 83	G: -3
COc1cc(C2c3c(-c4ccccc4)n[nH]c3C(=O)N2c2ccccc2)ccc1O (configuration not stated)
  A: i	B: 0.53	C: 1.8	D: 104	E: -27	F: 135	G: -7
CCC1CCCCN1C(=O)CSc1nnc(CNC(=O)COc2ccc(Cl)cc2)o1 (configuration not stated)
  A: i	B: 0.92	C: -1.4	D: 111	E: -15	F: 83	G: 6
CC1=C(C)/C(=N/OC(=O)c2cccc([N+](=O)[O-])c2)C=CC1=O
  A: i	B: 0.77	C: -0.1	D: 98	E: 52	F: 137	G: -11
CC(C)CCC(CC(C)O)c1n[nH]c(=S)n1-c1ccccc1 (configuration not stated)
  A: i	B: 0.98	C: -0.9	D: 98	E: .	F: .	G: 1
Cc1ccc(/C=N/Nc2ccc3c(C(F)(F)F)cc(C(F)(F)F)nc3n2)cc1
  A: i	B: 1	C: -0.8	D: 103	E: 71*	F: 51*	G: -4
CCCNC(=O)c1c(C)cc(=O)oc1C
  A: i	B: 1	C: 0.6	D: 104	E: -20	F: 136	G: -5
Cn1nc(C(F)(F)F)c(C(=O)Nc2ccc(F)cc2F)c1Sc1cccc(C(F)(F)F)c1
  A: i	B: 0.97	C: -1.7	D: 104	E: -67	F: 106	G: 1
O=C(Nc1ccc(OC(F)(F)F)cc1)C1=NCCN1
  A: i	B: 1	C: -3.0	D: 100	E: -7	F: 109	G: -9
COc1cccc(CNc2nc3ccccc3n2CCN2CCCCC2)c1
  A: i	B: 0.82	C: -1.2	D: 98	E: .	F: .	G: -5
CCNC(=O)N1c2ccc(OCC)cc2C(C)=CC1(C)C
  A: i	B: 0.86	C: -1.5	D: 89	E: -286	F: 34	G: -9
CNCC(O)CN1CCN(c2ccccc2OC)CC1 (configuration not stated)
  A: i	B: 0.95	C: .	D: 110	E: -3	F: 119	G: 3
O=[N+]([O-])c1ccc(N2CCOCC2)cc1NCCCO
  A: i	B: 0.89	C: .	D: 94	E: .	F: .	G: -3

# One compound at a time (already shown).
# CNCC(O)CN1CCN(c2ccccc2OC)CC1 (configuration not stated) in the list: HSV replic up: i; HSV replic up primary fold: 0.95; GALR2 ag: .; RGS16-Gao: 110; INS promoter inh: -3; INS promoter inh cell count: 119; PKD1 kinase inh: 3
# CCCNC(=O)c1c(C)cc(=O)oc1C in the list: HSV replic up: i; HSV replic up primary fold: 1; GALR2 ag: 0.6; RGS16-Gao: 104; INS promoter inh: -20; INS promoter inh cell count: 136; PKD1 kinase inh: -5
# CC(C)(C)NS(=O)(=O)c1ccc(NC(=O)NC2CCCCC2)cc1 in the list: HSV replic up: i; HSV replic up primary fold: 0.98; GALR2 ag: -2.4; RGS16-Gao: 97; INS promoter inh: .; INS promoter inh cell count: .; PKD1 kinase inh: -5

# More results follow.
# Screens by letter: A = HSV replic up; B = HSV replic up primary fold; C = GALR2 ag; D = RGS16-Gao; E = INS promoter inh; F = INS promoter inh cell count; G = PKD1 kinase inh
Cn1ncc2nc[nH]c(=O)c21
  A: i	B: 0.92	C: -3.0	D: 97	E: .	F: .	G: 6
O=c1c(-c2ccccc2)c(O)nc2ccccn12
  A: i	B: 0.97	C: -0.4	D: 99	E: 15	F: 84	G: -7
C=C(C)c1cccc(C(C)(C)NC(=O)N(C)C2CCN(C)CC2)c1
  A: i	B: 1	C: .	D: 205	E: -260	F: 66	G: 0
O=C1CC(c2cccs2)CC(O)=C1C=NCCN1CCNCC1 (configuration not stated)
  A: i	B: 1	C: -2.2	D: 108	E: 57	F: 82	G: -4

# Rows are unselected; overall some 1.3% were active at least once.
